Screening data (PubChem)
ClpP mod: qHTS Assay for Activators of ClpP. AID 651965, 2013. ATP-dependent Clp protease proteolytic subunit (Bacillus subtilis (strain 168)), P80244. purified B. subtilis ClpP, FRET peptide cleavage, 20 min. Potency, µM (top dose mostly 57.5 µM), without a hit: top-dose activity change, negative = active. 340,000 compounds, 1.9% hits; active = well fitted falling curve with a large enough effect; inconclusive = small, poorly fitted or top-dose-only effect; inactive = no such curve, though single readings can be large or run the other way; note: potency is the fitted concentration of half-maximal effect; the source files actives as falling curves though it sought activators and does not explain the sign; nearly all actives have a fitted effect of over 65% in size; many hits overshoot -100%
Target sequence (P80244 whole entry, looked up): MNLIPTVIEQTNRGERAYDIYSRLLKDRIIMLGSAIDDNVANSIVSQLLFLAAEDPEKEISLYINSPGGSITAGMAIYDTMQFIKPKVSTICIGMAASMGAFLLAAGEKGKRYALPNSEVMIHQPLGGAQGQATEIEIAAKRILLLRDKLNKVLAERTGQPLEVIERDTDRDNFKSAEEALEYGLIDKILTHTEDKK
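FRET quenching reversal measured ClpP activation: 10 microg/mL B. subtilis ClpP at pH 8 with the FRET-FV decapeptide, read at 430 nm after 320 nm excitation. The 20-min minus 0-min signal was scaled between DMSO/no-enzyme wells and ADEP (5.8 microM final).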
gsp ag: agonists of gsp mutant (McCune-Albright syndrome); gsp mutant cells, cAMP HTRF, 30 min; control for the full effect not named in the record; Potency, µM (titrated, usually from 76.9 µM), for inactives: top-dose activation (cAMP increase), most hits filed as activators; 340,000 compounds, 0.13% hits; AID 624287; active = well fitted activation curve with a large enough effect; inconclusive = small, poorly fitted or top-dose-only effect, or another doubt; inactive = no such curve, though single readings can be large or run the other way; cell line not stated here;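 note: phosphodiesterase inhibitor Ro 20-1724 added with compounds to block cAMP breakdown; potency is the fitted concentration of half-maximal effect; nearly all actives have a fitted effect of over 60% in size; about a fifth of the inactives were tested at one dose only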
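Cells in DMEM/10% FBS with G418 were pretreated with compounds in DMSO plus […] (300 uM stock) for 30 min at 37C. cAMP was measured by HTRF (cAMP-d2 plus anti-cAMP antibody-K) after 30 min at room temperature.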
gsp antagonist: gsp mutant antagonism; gsp-mutant cells, cAMP HTRF, 30 min; control for the full effect not named in the record; Potency, µM (doses to about 76.9 µM), for the others: top-dose activity change, negative = inhibition, actives largely listed as inhibitors; 340,000 compounds, 0.4% hits; active = falling curve of any shape with a large fitted effect; inconclusive = falling curve, mostly with a smaller effect; inactive = flat or rising curve; cell line not stated here;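 note: intracellular cAMP measured with PDE inhibitor Ro 20-1724 present during compound exposure; potency is the fitted concentration of half-maximal effect; % is set by controls: 0 for no effect and ±100 for the full control effect; nearly all actives have a fitted effect of over 65% in size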
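Cells in G418 medium, seeded 16-24 h, 37C; buffer exchange to DPBS + 1 mM CaCl2, 0.5 mM MgCl2, 0.05% BSA; cpds in DMSO + […] (300 uM stock), 30 min 37C; HTRF cAMP detection.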
Sfp PPTase inh: blocks B. subtilis Sfp PPTase activity | Biochemical Sfp PPTase activity, qHTS | Potency, µM, inactives show max response, negative = inhibition, hits mostly inhibitors | 310,000 compounds, 3.5% hits; active = well fitted inhibition curve with a large enough effect; inconclusive = small, poorly fitted or top-dose-only effect, or another doubt; inactive = no such curve, though single readings can be large or run the other way;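 note: the enzyme is Sfp with the accession as filed and its product quenches rhodamine fluorescence; potency is the fitted concentration of half-maximal effect; 0% = enzyme reaction without inhibitor and -100% = no enzyme wells; top concentration of the series not given in the record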
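Fluorescence-quenching assay: 15 nM Sfp-PPTase preincubated 15 min at room temperature with compound, then 5 uM rhodamine-CoA and 12.5 uM BHQ-2-labelled YbbR peptide added. Fluorescence (ex 525/em 598 nm) read at start and after 30 min; difference gives rate.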
D2 ag: activates the human D2 dopamine receptor; P14416; DiscoveRx PathHunter D2 beta-arrestin, luminescence, 90 min; 100% = 57 uM dopamine signal; activation, % (concentration not given with the values); 360,000 compounds, 0.084% hits; AID 624465; in the data active = activation above about 40%; inconclusive = about 15% to 40%; inactive = below about 15%; note: the text of the record calls up to 30% inactive
Target sequence (P14416 whole entry, looked up): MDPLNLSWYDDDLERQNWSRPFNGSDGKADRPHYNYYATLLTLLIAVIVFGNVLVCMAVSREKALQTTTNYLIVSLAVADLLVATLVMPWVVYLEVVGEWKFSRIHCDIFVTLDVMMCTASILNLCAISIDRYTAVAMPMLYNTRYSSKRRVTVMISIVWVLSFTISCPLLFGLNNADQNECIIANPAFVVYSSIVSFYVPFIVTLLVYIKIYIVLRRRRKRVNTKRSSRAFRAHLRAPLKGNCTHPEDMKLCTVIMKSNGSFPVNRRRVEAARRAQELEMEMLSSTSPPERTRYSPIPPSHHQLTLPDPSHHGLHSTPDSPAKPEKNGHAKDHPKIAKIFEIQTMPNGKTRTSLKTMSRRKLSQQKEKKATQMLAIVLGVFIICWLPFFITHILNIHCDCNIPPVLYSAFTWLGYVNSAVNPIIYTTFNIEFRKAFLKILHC
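DiscoveRx PathHunter D2 beta-arrestin cells (2,100/well) attached overnight, then compound-stimulated 90 min at 37 C in HBSS/10 mM HEPES/0.1% Tween-20 buffer; beta-galactosidase complementation read by luminescence after 1 h at ambient temperature. Dopamine 57 uM final (EC100) as control.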
PINK1 modulator: modulators of PINK1 expression | PINK1 immunofluorescence, high-content cytometry, 24 h | Potency, µM (series often up to 76.6 µM), without a hit: at the top dose activation (PINK1 increase), most hits filed as activators | 410,000 compounds, 0.2% hits | AID 624263; active = well fitted activation curve with a large enough effect; inconclusive = small, poorly fitted or top-dose-only effect; inactive = flat fitted curve, though single readings scatter; cell line not stated here;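 note: potency is the fitted concentration of half-maximal effect; % of control where 0% means no effect; nearly all actives have a fitted effect of over 65% in size; a mitochondrial uncoupler was the plate control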
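PINK1 protein level read as immunofluorescence by microplate cytometer in a fixed, stained stable cell line after 24 h exposure to five compound concentrations, with CCCP as control.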
Menin-MLL FL inh: inhibitors of human menin-MLL interaction, wild-type MLL peptide. Fluorescence polarization, fluorescein-MLL peptide displacement from menin. FP activity change, % at 61.4 µM. 290,000 tested, under 10 active. AID 1766; inconclusive = falling polarisation curve, or a change in total fluorescence; inactive = total fluorescence flat and polarisation flat or rising; no compound was filed as active; the % refers to the polarisation; negative = inhibition;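 note: % of control where 0% means no effect; inhibitors lower the polarisation; unlabelled MLL peptide was the positive control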
Starred values were filed as active, the others as inactive; ? = inconclusive; . = no result given; & = joins results of further samples; [ ] = remark or other dose.

Values in the order – ClpP mod, gsp ag, gsp antagonist, Sfp PPTase inh, D2 ag, PINK1 modulator, Menin-MLL FL inh
- COc1ccc(-c2csc(NC3OC(=O)c4ccccc43)n2)cc1 (stereo unspecified)
  -0.1%, 5%, -25%, 1%, -3.5, -0.7%, -2.1
- Cc1onc(-c2ccccc2)c1C(=O)Nc1ccncc1
  -3.4%, -39%[inhibitor], 7%, 5%, -1.0, -0.6%, 2.0
- CC1=C(c2ccccc2)SC2=NCCN21
  -4.1%, 15%, 12%, -1%, -3.8, -2.5%, -0.5
- CCCCC(=O)N(Cc1ccc(F)cc1)C1CCS(=O)(=O)C1 (stereo unspecified)
  -0.7%, -26%, 3%, 7%, 0.4, 0.1%, 4.6
- COc1ccc(OC)c(C2CC(=O)N3CN(c4cccc(Cl)c4C)CSC3=C2C#N)c1 (stereo unspecified)
  -4.8%, -66%[inhibitor], -3%, 3.5µM*, 8.3, -0.4%, -2.0
- COc1ccccc1C(=O)OCC(=O)Nc1cc(S(=O)(=O)N2CCOCC2)ccc1N1CCCC1
  -0.2%, 6%, -9%, 25%, 0.2, 0.5%, -1.6
- COC1=CC(=O)c2nc(Cl)ccc2C1=O
  13%, ., ., ., 10, 3.9%, .
- C[C@H]1CN([C@@H](C)CO)S(=O)(=O)c2ccc(Br)cc2O[C@H]1CN(C)C(=O)c1cccnc1
  -1.9%, -58%[inhibitor], ., ., -3.0, 0.7%, .
- Cc1ccc(S(=O)(=O)CCc2nnc(NC(=O)c3cnccn3)s2)cc1
  -0.8%, -15%, 0%[15.4 µM], 2%, -2.6, 19%, -1.3
- CCOCCCNS(=O)(=O)c1cc2[nH]c3c(c2cc1C)C(=O)CC(C)(C)C3
  ., 23%, -5%, 2%, 1.8, 0.2%, -1.4
- O=C(C1=COCCO1)N1CCN(C(c2ccccc2)c2ccccc2)CC1
  -3.9%, -9%, -10%, 2%, -1.9, -0.5%, -3.8
- Cc1ccccc1C(=O)c1c[nH]c(C(=O)NCC2CCCO2)c1 (stereo unspecified)
  -0.9%, 6%, 8%, 12%, 2.1, -0.9%, 1.9
- O=S1(=O)CC(N2CCC(c3ccccc3)CC2)CN1C1CCCCC1 (stereo unspecified)
  2.4%, ., ., ., -3.5, 1.5%, .
- Cc1cc2ccccc2n2c(SCC(=O)N3CCc4ccccc4C3)nnc12
  -1.4%, -5%, -2%, 3%, -1.5, -0.8%, -1.3
- COCCCNC(=O)CS(=O)(=O)Cc1nc(-c2cccc(OC)c2)oc1C
  -13%, 5%, -2%, 15%, -2.0, -0.4%, 0.0
- O=C(NCCCN1CCCC1=O)c1cc(S(=O)(=O)N2CCOCC2)ccc1Cl
  -0.8%, ?, 15%, -1%, -4.9, -0.7%, .
- CCCN=C1N(C)C[C@@H]2[C@@H]3C(=O)N(Cc4ccccc4)C(=O)[C@@H]3[C@](Cc3ccccc3)(C(=O)OC)N12
  2.8%, ., 8%, ., -1.2, -1.5%, .
- O=C(OC1CCOC1=O)C1CCN(S(=O)(=O)c2ccccc2)CC1 (stereo unspecified)
  1.3%, -6%, 8%, ., -4.9, 4.0%, .
- COc1ccc(/C=N/Nc2nnc(-c3ncc[nH]3)c3ccccc23)cc1
  -7.6%, 6%, -8%, -4%, -0.1, 8.3%, 2.6
- CC(=O)Nc1ccc(-c2ccnc3c2CC(C(=O)NCc2ccc(N4CCN(C)CC4)cc2)O3)cc1 (stereo unspecified)
  -17%, ., ., ., 5.1, 0.1%, .
- Cc1cccc(C(=O)NC2=NCCS2)c1
  ., 3%[15.4 µM], 9%, -3%, -1.2, 1.7%, -0.2
- O/N=C1/CCc2nonc2/C1=N/O
  -5.6%, -51%[inhibitor], 6%, 50µM*, 9.8, -2.0%, 1.2
- COc1ccccc1N(CC(=O)Nc1cccnc1)S(=O)(=O)c1ccccc1
  -0.1%, -5%, -11%, -6%, 0.5, 0.9%[38.3 µM], 4.9
- CCOC(=O)c1cnc2ccc(OCC)cc2c1N(C)Cc1ccccc1
  -0.1%, -1%[15.4 µM], ?, ?, -3.7, 14%, -2.0
- CNC(=S)Nc1ccc2[nH]c(=O)[nH]c2c1
  -1.4%, 10%[15.4 µM], -10%, ?, ?, 0.1%, 5.9
- CCOC(=O)c1cc(=O)n2nc(-c3ccc(C)cc3)nc2s1
  -0.8%, -3%, 14%, -10%, -4.3, 0.5%, 6.4
- Cc1ccc(OCCCC(=O)Nc2ccc3c(c2)OCCO3)cc1
  -2.5%, 4%, -6%, ., -3.9, 0.2%, .
- CCOC(=O)CSc1nnc([C@H](C)NC(=O)OC(C)(C)C)o1
  -12%, -3%, 7%, 14%, -3.0, 3.4%, 7.2
- COc1cccc(OC)c1C(=O)Nc1ccccc1C(=O)N1CCCCCC1
  ?, -33%[inhibitor], 15%, 21%, -4.5, -0.8%, 2.5
- CC(C)N1C(=O)C2C(c3ccccc3O)NC(C)(C(=O)O)C2C1=O (stereo unspecified)
  -1.1%, ?, 3%, 20µM*, -3.6, 0.1%, 0.2
- COc1cc(-c2noc(CCC(=O)NC3CCCC3)n2)cc(OC)c1OC
  ., -15%, 2%, 21%, -1.2, 5.0%, -7.2
- C[C@H]1CN([C@@H](C)CO)C(=O)CCCn2nncc2CO[C@@H]1CN(C)Cc1ccccc1C(F)(F)F
  -0.8%, 18%, ., ., -1.6, -2.4%, .
- Cc1ccc(C(=O)Nc2ccc(N3CCN(C)CC3)cc2)cc1C
  -0.4%, -37%[inhibitor], -11%, 8%, 5.7, -1.0%, 2.6
- O=C(c1ccco1)N1CCN(Cc2ccc(F)cc2)CC1
  -0.4%, -15%, 11%, -19%, 44*, 2.8%, 0.6
- CCCC(C)NC(=O)Cc1ccc(Br)cc1 (stereo unspecified)
  1.8%, -38%[inhibitor], -6%, 27%, -1.1, 2.1%, 4.0
- O=C(Cc1ccccc1)N1CCCC1c1ccccc1 (stereo unspecified)
  1.5%, 6%, -14%, 8%, -2.2, -2.2%, -1.9
- Cc1ccc(C2CC(c3ccccc3)=NN2c2ccc(S(N)(=O)=O)cc2)cc1 (stereo unspecified)
  4.6%, ., ., ., 8.8, 4.6%, .
- COc1ccc(C(=O)C2CCCN(Cc3c[nH]c4ccccc34)C2)c(OC)c1 (stereo unspecified)
  0.6%, 1%, 9%, -12%, -0.1, -1.9%, -0.3
- COc1ccc(-c2[nH]c(-c3ccccc3)nc2SCC(=O)Nc2nccs2)cc1
  -5.6%, -40%[inhibitor], -6%, -1%, 0.5, -0.7%, 1.1
- COc1ccc(C(C)(C)C)cc1S(=O)(=O)n1ccnc1C
  ., -10%, -3%, 8%, 1.8, -1.4%, 20
- COc1cccc(CNC(C)(C)CO)c1OCc1ccc(Cl)cc1
  ., -10%[15.4 µM], 14%, 13%, 5.5, -0.3%, -1.2
- CCN(CC(=O)Nc1ccc(C)c(S(=O)(=O)N2CCOCC2)c1)Cc1ccccc1
  -3.2%, -4%, -3%, ., -1.9, -0.1%, .
- N=C1/C(=C\c2coc3ccccc3c2=O)C(=O)N=C2SC=CN12
  2.9%, 14%, -24%, -27%, -5.1, 13%, ?
- Clc1ccc(-n2nnnc2SCc2c(-c3ccccc3)nc3sccn23)cc1
  -11%, -23%, 2%, -27%, 0.7, 3.9%, 2.8
- Cc1ccc(F)cc1C(=O)N1CCCCC1c1cc(C(=O)Nc2ccc(F)c(Cl)c2)no1 (stereo unspecified)
  -12%, ., ., ., 5.6, -0.4%, .
- CC(C)c1ccc(NS(=O)(=O)c2ccc(Cl)nc2)cc1
  0.5%, -16%[15.4 µM], 8%, 17%, -0.3, ?, 0.4
- COc1cc2c(cc1OC)CN(C(=O)COc1ccc(C#N)cc1)CC2
  -6.5%, 6%, -17%, 13%, 1.8, 0.9%, 0.9
- COc1ccc(S(=O)(=O)N2CCOCC2)cc1NC(=O)CCc1cc(OC)c(OC)c(OC)c1
  -2.0%, 13%, 3%, ., 0.6, 0.1%, .
- Clc1ccccc1NN(Cc1ccncc1)c1ccccc1Cl
  0.6%, 25%, ., ., -6.8, -1.2%, .
- C/C=C(\C)C(=O)O[C@H](c1cc2ccc(=O)oc2cc1OC)[C@@H](O)C(C)(C)O
  3.9%, ., 3%, ., 2.2, -1.4%, .
- CCOC(=O)CSc1nc(C)cc(C)n1
  -1.0%, -3%, 6%, -3%, -0.8, -0.6%, 4.5
- COC(=O)c1c(NC(=O)CN2C(=O)NC3(CCc4ccccc4C3)C2=O)sc2c1CCCCC2 (stereo unspecified)
  ., 10%[15.4 µM], -29%, 19%, -4.1, 7.6%, ?
- Cn1c(CC2C(=O)Nc3ccc(Br)cc32)nc2ccccc2c1=O (stereo unspecified)
  18%, -90%, -6%, -3%, -16, -2.2%, -0.3
- CCOC(=O)c1ccc(NC(=O)c2nc[nH]c2C(=O)NCCCNC(=O)c2[nH]cnc2C(=O)Nc2ccc(C(=O)OCC)cc2)cc1
  -9.7%, ., -15%, ., 2.5, 14%, .
- COc1ccc(-c2cn(Cc3ccc4c(c3)C(=O)c3ccccc3C4=O)nn2)cc1
  0.1%&0.4%, ., 2%, 2%, 2.5, 0.7%, 4.3
- COc1ccc(C(C(=O)Nc2ccc(C(C)C)cc2)N(C)C(=O)CNC(C)=O)cc1 (stereo unspecified)
  -1.8%, -13%, 10%, 9%, -4.6, 0.1%, 2.8
- O=C1COc2ccc(NC(=O)c3ccccc3C(=O)O)cc2N1
  -3.0%, 10%, 0%, 79µM*, -2.6, 0.3%, 2.8
